# Insulin prom inh: inhibitors of insulin promoter-driven GFP, primary screen, imaging, TRM-6 cells (human fetal islet line), eGFP reporter, cell count. 130,000 compounds, 0.9% hits. reporter expression induced with tamoxifen. inhibition, % at 2 µM. AID 1273, 2008;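 active = inhibition above the mean plus 3 SD, with well images judged a real hit on visual review, cut at about 60% in these data, passing the limit was not always enough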
# RGS16-Gao HTS: modulators of RGS16 binding to Galphao, primary screen, biochemical, human proteins, multiplexed bead flow cytometry; binding response (% of control), % at 10 µM; 220,000 compounds, 0.38% hits; Regulator of G-protein signaling 16 (Homo sapiens) + Guanine nucleotide-binding protein …; AID 1441, 2008; bead-based flow cytometry RGS16-Galphao binding, fluorescence; actives lie on both sides;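 active = below 25% or above 175%, edge rows of some plates excepted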;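 note: Galphao activated by GDP with aluminum fluoride before binding; 100% = wells without compound and 0% = beads without RGS; some results beyond the cut were filed as inactive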
# Target sequence (O15492 whole entry, looked up): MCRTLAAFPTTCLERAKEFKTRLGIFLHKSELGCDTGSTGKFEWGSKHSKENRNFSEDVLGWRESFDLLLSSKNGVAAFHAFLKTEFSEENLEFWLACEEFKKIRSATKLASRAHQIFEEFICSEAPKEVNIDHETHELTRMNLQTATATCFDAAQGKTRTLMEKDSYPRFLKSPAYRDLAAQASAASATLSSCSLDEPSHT
# Target sequence (P09471 whole entry, looked up): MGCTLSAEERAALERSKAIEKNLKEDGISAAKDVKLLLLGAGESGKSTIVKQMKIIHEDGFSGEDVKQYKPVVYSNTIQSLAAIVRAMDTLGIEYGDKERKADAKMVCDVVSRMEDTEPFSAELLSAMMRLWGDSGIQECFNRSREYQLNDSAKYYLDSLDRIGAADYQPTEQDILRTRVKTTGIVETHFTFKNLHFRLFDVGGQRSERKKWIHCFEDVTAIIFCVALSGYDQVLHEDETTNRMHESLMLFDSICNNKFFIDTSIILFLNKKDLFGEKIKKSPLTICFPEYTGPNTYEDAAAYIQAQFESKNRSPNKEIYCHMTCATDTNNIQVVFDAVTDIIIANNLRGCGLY
# HSV replic up: enhancers of HSV replication in host cells, fold increase, host cell viability. HSV replication augmentation in cells. maximum fold increase. AID 1956, 2009. 220,000 compounds, 0.005% hits;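 active = peak rise of 1.5-fold or more in the series; tested in PC3 cells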;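 note: first round at 10 µM; read as green reporter fluorescence; hits show the peak of a series up to 25 µM; 1 = signal of infected wells without compound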
# PKD1 inh: inhibitors of human PKD1 kinase, biochemical, fluorescence polarization; 200,000 compounds, 0.056% hits; inhibition, %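 (about 10 µM by stock and volumes)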; PKD1 kinase fluorescence polarization assay;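 active = inhibition of 50% or more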;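 note: controls were vehicle for no effect and a reference inhibitor for full effect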
# GALR2 ag: GALR2 receptor agonists, primary screen, cell-based; GALR2-expressing cells, agonist activation read-out; 140,000 compounds, 0.48% hits; activation, %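 (tested at 5 µM)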;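 active = above mean plus 3 SD of all compounds, about 5% in these data, not always enough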;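 note: 0% = vehicle buffer wells and 100% = reference agonist at full effect; tested in CHO reporter cells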
# Target sequence (O43603 whole entry, looked up): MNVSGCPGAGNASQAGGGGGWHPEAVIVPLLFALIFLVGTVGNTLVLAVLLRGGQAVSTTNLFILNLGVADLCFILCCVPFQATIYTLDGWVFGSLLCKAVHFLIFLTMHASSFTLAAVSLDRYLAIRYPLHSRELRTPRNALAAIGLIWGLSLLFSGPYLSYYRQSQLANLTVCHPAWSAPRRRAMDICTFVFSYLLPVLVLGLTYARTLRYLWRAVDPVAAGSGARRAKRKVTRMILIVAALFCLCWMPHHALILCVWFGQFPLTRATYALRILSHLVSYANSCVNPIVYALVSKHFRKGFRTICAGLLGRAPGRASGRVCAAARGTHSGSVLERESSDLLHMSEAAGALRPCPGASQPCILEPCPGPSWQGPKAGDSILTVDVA
# Insulin prom inh cell count: second read-out of Insulin prom inh, no call of its own (marks repeat the call); normalized cell count, %; measured here: cell count, toxicity; reference of the scale not given here;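 cells exposed to compound for 48 h; stained nuclei by imaging scaled within each plate; lower means fewer cells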
# HSV replic up primary fold: further read-out of HSV replic up, marked with its call; fold increase; compound at 10 µM; measured here: primary screen fold increase 10 uM; tested in PC3 cells;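 GFP signal in the first replicate; 1 = infected wells without compound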
# Numbers without * were called inactive; i = inactive; · = not tested or not shown; [ ] = dose if it differs, or a comment.
structure	GALR2 ag	PKD1 inh	HSV replic up	RGS16-Gao HTS	Insulin prom inh cell count	HSV replic up primary fold	Insulin prom inh
COc1ccccc1NC(=O)CSc1nnc(CNC(=O)c2ccco2)o1	-1.4	-12	i	99	119	1.1	17
COc1ccccc1-c1cc(C(=O)N2CCCCC2)no1	-1.3	-8	i	99	·	0.82	·
Cc1[nH]c2ccc(F)cc2c1CCN(Cc1cccnc1)C(=S)Nc1cccc(F)c1	·	-5	i	94	62	0.93	-89
S=C(Nc1ccccc1)Nc1ccc2cn[nH]c2c1	·	·	i	95	·	0.96	·
O=C(COc1ccc(Br)cc1CO)Nc1ccccc1F	0.2	-9	i	104	63	0.91	-39
Cc1ccc(-c2nnn(CC(=O)N(c3cccc(O)c3)C(C(=O)NC(C)(C)C)c3cccs3)n2)o1 (configuration not stated)	-1.1	-1	i	100	·	1	·
CCNC(=S)NNC(=O)c1cc(-c2ccccc2C)nc2ccccc12	-3.0	-16	i	98	·	0.99	·
Nc1ccc2nc(-c3cc(Cl)c(N)c(Cl)c3)[nH]c2c1	-3.0	-3	i	95	109	0.82	67

# The results go on.
structure	GALR2 ag	PKD1 inh	HSV replic up	RGS16-Gao HTS	Insulin prom inh cell count	HSV replic up primary fold	Insulin prom inh
Oc1cccc(C2c3[nH]c4ccccc4c3CCN2Cc2ccoc2)c1 (configuration not stated)	·	3	i	100	·	1.2	·
COc1ccc(CCNC(=O)C2CCN(c3nccc(C)n3)CC2)cc1	·	3	i	101	69	0.99	32
CCCCn1c(CN2CCOCC2)nc2c1c(=O)n(C)c(=O)n2C	-0.2	4	i	·	136	0.96	40
Nc1cccc(-c2cc(-c3ccccc3)nc(-c3cccc(N)c3)n2)c1	2.2	-19	i	96	77	0.75	-48
CN(C)CC(C(=O)c1ccccc1)c1ccccc1 (configuration not stated)	-0.6	-2	i	105	·	0.66	·
O=c1cc(-c2ccccc2Cl)oc2ccc([N+](=O)[O-])c(O)c12	0.1	3	i	103	119	0.89	35
O=C(NCCCN1CCOCC1)c1cc(-c2ccccc2)on1	-2.7	0	·	102	56	·	0
N#CC1=C2SCN(c3ccccc3)CN2C(=O)CC1c1cccs1 (configuration not stated)	-0.2	-6	i	64	·	0.76	·

# The list continues:
structure	GALR2 ag	PKD1 inh	HSV replic up	RGS16-Gao HTS	Insulin prom inh cell count	HSV replic up primary fold	Insulin prom inh
COC(=O)c1cn(NC(=O)c2cccc(N(C)C)c2)c(=O)c2ccccc12	-1.0	11	i	96	145	0.85	13
Cc1csc(Nc2ccc(Cl)cc2)[n+]1-c1ccc(Cl)cc1	·	-3	i	96	·	0.98	·
O=C(c1cc(-c2ccccc2)on1)N1CCCC1	-2.8	-12	i	105	113	0.77	34
CC1(CC(=O)O)C(=O)N=C2C=CC=CN21 (configuration not stated)	-0.9	1	i	114	135	0.92	54
CCOc1ccccc1-n1c(=S)sc2c(=O)n(-c3ccccc3)c(=S)[nH]c21	·	5	i	102	76	0.95	28
O=C(CCC1CCCC1)N1CCN(S(=O)(=O)Cc2ccccc2)CC1	-1.8	-3	i	116	·	0.87	·
Cc1cc(C)nc(Nc2n[nH]c(-c3ccccc3Cl)n2)n1	·	2	i	97	·	0.87	·
Cc1ccc(C(=O)Nc2ccc(C(=O)N/N=C/c3c[nH]c4ccccc34)cc2)cc1	-1.6	-9	i	59	87	0.93	17

# In the list so far, these have a thiophene ring, fused or not:
structure	GALR2 ag	PKD1 inh	HSV replic up	RGS16-Gao HTS	Insulin prom inh cell count	HSV replic up primary fold	Insulin prom inh
Cc1ccc(-c2nnn(CC(=O)N(c3cccc(O)c3)C(C(=O)NC(C)(C)C)c3cccs3)n2)o1 (configuration not stated)	-1.1	-1	i	100	·	1	·
N#CC1=C2SCN(c3ccccc3)CN2C(=O)CC1c1cccs1 (configuration not stated)	-0.2	-6	i	64	·	0.76	·

# The list continues.
structure	GALR2 ag	PKD1 inh	HSV replic up	RGS16-Gao HTS	Insulin prom inh cell count	HSV replic up primary fold	Insulin prom inh
O=S(=O)(Cc1ccccc1Cl)NCCOc1ccccc1	-1.5	-6	i	120	111	0.93	0
COc1ccc(NC(=O)c2cc(=O)c3ccccc3o2)cn1	-2.4	17	i	120	128	0.9	32
O=C(OCc1cncs1)c1ccccc1	·	-1	i	101	78	1.1	19
O=C1N/C(=N/S(=O)(=O)Cc2ccccc2)S/C1=C/c1ccc2c(c1)OCO2	·	·	i	111	·	1.1	·
Brc1cccc(-c2nnco2)c1	-1.9	1	i	101	94	0.9	41
N#Cc1cc([N+](=O)[O-])ccc1Oc1cccc(/C=N/NC(=O)c2ccc(Cl)cc2)c1	-2.8	-3	i	103	92	0.81	68
COC(=O)c1c(-c2ccccc2Cl)noc1-c1cnc(N)nc1C(F)(F)F	·	·	i	101	·	0.97	·
CCCc1[nH]nc2c1C(c1cc(OC)ccc1F)C(C#N)=C(N)O2 (configuration not stated)	-1.1	-3	i	102	142	1	-6

# Remaining list, next part
structure	GALR2 ag	PKD1 inh	HSV replic up	RGS16-Gao HTS	Insulin prom inh cell count	HSV replic up primary fold	Insulin prom inh
COc1cc(C2C(C#N)=C(N)Oc3c2oc(CO)cc3=O)cc(OC)c1OC (configuration not stated)	-0.3	-5	i	100	·	1.2	·
CCn1c(CSc2nc3ccccc3s2)nnc1SCC(=O)c1ccc(O)c(O)c1	-2.6	-10	i	65	136	0.93	-13
Nc1[nH]nc2nc(N3CCOCC3)nc(-c3ccccc3)c12	-0.7	-10	i	103	136	0.98	50
CC1C/C(=C/c2ccco2)C(=O)/C(=C/c2ccco2)C1 (configuration not stated)	-0.1	-16	i	97	103	1.2	-24
CC(C)(C)C(=O)NC(=S)Nc1ccc(C(F)(F)F)cc1	·	·	i	90	·	0.98	·
Cc1ccc(NC(=O)c2ccccc2)cc1	-3.8	-7	i	101	144	1	8
Cc1ccc(-c2nc(Nc3cccc(C)c3)sc2CC(=O)O)cc1	·	-9	i	96	·	0.82	·
Cc1nnc(-c2cnn(-c3ccccc3)c2N)n1Cc1ccncc1	-0.4	-2	i	106	116	0.87	-3

# (more compounds)
structure	GALR2 ag	PKD1 inh	HSV replic up	RGS16-Gao HTS	Insulin prom inh cell count	HSV replic up primary fold	Insulin prom inh
c1ccc(-c2ccc(-c3ccccn3)nn2)nc1	-0.7	-6	·	95	134	·	-12
COc1ccc(Cl)cc1NC(=S)N1CCN(C(=O)C2CCCO2)CC1 (configuration not stated)	·	2	i	97	·	1.1	·
CCN(C(=O)COC(=O)c1cccn1C)C1CCS(=O)(=O)C1 (configuration not stated)	·	6	i	98	·	0.94	·
CCOCCc1nnc(NC(=O)COC)s1	-1.2	-13	i	100	94	0.96	-32
CCn1cc(S(=O)(=O)N2CCN(Cc3ccc(F)cc3)CC2)cn1	·	-2	i	103	78	1	-10
Clc1ccc2nnnc(-c3ccccc3)c2c1	0.3	3	i	95	120	0.47	30
O=C1C2C3C=CC(C3)C2C(=O)N1/N=C/c1cc(Br)cc([N+](=O)[O-])c1O (configuration not stated)	-1.0	-12	i	108	130	1.1	4
CC(C)=CCC(C)(C)/C=N/NC(N)=O	·	·	i	97	·	0.98	·

# Single records (already shown). Screens in order: GALR2 ag, PKD1 inh, HSV replic up, RGS16-Gao HTS, Insulin prom inh cell count, HSV replic up primary fold, Insulin prom inh
# Results for `COc1ccccc1-c1cc(C(=O)N2CCCCC2)no1` → -1.3, -8, i, 99, ·, 0.82, ·
# Results for `COc1ccccc1NC(=O)CSc1nnc(CNC(=O)c2ccco2)o1` → -1.4, -12, i, 99, 119, 1.1, 17
# Results for `CC(C)=CCC(C)(C)/C=N/NC(N)=O` → ·, ·, i, 97, ·, 0.98, ·
# Results for `Cc1ccc(-c2nc(Nc3cccc(C)c3)sc2CC(=O)O)cc1` → ·, -9, i, 96, ·, 0.82, ·
# Results for `COc1ccc(NC(=O)c2cc(=O)c3ccccc3o2)cn1` → -2.4, 17, i, 120, 128, 0.9, 32

# The results go on.
structure	GALR2 ag	PKD1 inh	HSV replic up	RGS16-Gao HTS	Insulin prom inh cell count	HSV replic up primary fold	Insulin prom inh
CC(C)CC(C(=O)Nc1ccc2c(c1)OCCO2)N1C(=O)c2ccccc2C1=O (configuration not stated)	-2.2	-4	i	106	84	0.85	-33
CCCCc1ccc(-n2c(Cc3cccs3)n[nH]c2=S)cc1	·	-6	i	99	·	0.93	·
CCOC(=O)N1CCN(c2c(N3CCN(c4ccccc4OC)CC3)c(=O)c2=O)CC1	-0.4	-2	i	·	·	0.98	·
O=C(c1ccco1)N1CCN(C(=O)c2cc(-c3ccccc3)nc3ccccc23)CC1	-2.6	-2	i	101	185	0.89	26
CC(=O)c1cc(-c2ccccc2)n(CCC(=O)NC2CCCC2)c1C	·	-7	·	106	85	·	-7
CCc1cc(=O)oc2cc3occ(-c4ccc(OC)c(F)c4)c3cc12	2.1	-3	i	104	12	0.88	-104
COc1ccccc1C(=O)Nc1ccccc1C(=O)N1C(C)CCCC1C (configuration not stated)	·	-3	i	102	91	1	19
NC(N)=N/N=C/c1ccc(Cl)c([N+](=O)[O-])c1	·	3	i	104	170	0.76	0

# (list continues)
structure	GALR2 ag	PKD1 inh	HSV replic up	RGS16-Gao HTS	Insulin prom inh cell count	HSV replic up primary fold	Insulin prom inh
CCN(CC)c1ccc(NC(=O)COC(=O)C23CCC(=O)N2c2ccccc2S3)cc1 (configuration not stated)	-2.0	-1	i	104	123	0.88	16
c1nc(NCC2CCCO2)c2[nH]cnc2n1 (configuration not stated)	-0.9	-6	i	·	203	0.88	-18
O=C(CN1C(=O)CC(c2ccccc2)=Nc2ccccc21)NCc1ccco1	-2.2	6	i	-0.5*	87	0.93	-52
CS(=O)(=O)N(Cc1cc2ccccc2[nH]c1=O)C1CCCCC1	0.2	-1	·	100	95	·	-67
N#CCc1nn(-c2ccccc2)c2ncnc(N)c12	·	·	i	103	·	1	·
CCC(=O)NCCn1c(C)cc2ccccc21	-3.6	5	i	112	·	1	·
CN1CCC(=NNC(=O)CN(c2cccc(Br)c2)S(C)(=O)=O)CC1	·	-4	i	84	68	1.1	-50
CCCCCC(=O)NC(=S)Nc1ccc(NC(=O)c2ccco2)cc1	-1.5	-9	i	179*[activator]	91	0.9	12

# Next results follow:
structure	GALR2 ag	PKD1 inh	HSV replic up	RGS16-Gao HTS	Insulin prom inh cell count	HSV replic up primary fold	Insulin prom inh
CCOCCCNc1ccc(N2C(=O)C3CCCCC3C2=O)cc1[N+](=O)[O-] (configuration not stated)	·	1	i	102	99	0.87	21
Cc1nc(NC(=O)/C=C/c2ccc(C(C)(C)C)cc2)sc1C(=O)N(C)C	-1.8	-13	i	61	101	0.94	38
COC(=O)c1cc(-c2c(C)oc3cc(OC(C)C)ccc3c2=O)c(C)o1	-1.5	-7	i	102	51	0.86	-41
O=C(COC(=O)/C=C/c1ccccc1Cl)NCc1ccccc1	-1.6	4	i	99	143	0.94	-25
COC(=O)c1ccc(-c2noc(CN3C[C@H]4CC[C@H]3C4)n2)cc1	·	-2	i	101	·	1.2	·
CCOc1ccc(OCCN2C(=O)NC3(CCCc4ccccc43)C2=O)cc1 (configuration not stated)	-1.4	-27	i	112	84	0.97	29
Nc1ccc(S(=O)(=O)Nc2nccc(/C=C/c3ccc(Cl)cc3Cl)n2)cc1	·	·	i	106	·	1.1	·

# High-throughput results from PubChem BioAssay.
